RE007 growth inh: less growth of the S. pombe RE007 Vpr strain. Potency, µM (series often up to 92.2 µM), inactives show at the top dose activity change, negative = less growth. S. pombe RE007 Vpr strain, BacTiter-Glo ATP luminescence, 24 h; control for the full effect not named in the record. AID 651644. 360,000 compounds, 0.21% hits; active = well fitted falling curve with a large enough effect; inconclusive = small, poorly fitted or top-dose-only effect; inactive = no such curve, though single readings can be large or run the other way;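 further: on the % scale 0 is the no-effect control and ±100 the full control effect; nearly all actives have a fitted effect of over 50% in size; the assay follows cell death caused by Vpr and the record does not say whether a fall means rescue or toxicity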
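Fission yeast strain RE007, carrying one chromosomally integrated HIV-1 vpr copy, was seeded at OD 0.01 in PMG+AL medium with 23 nL pinned compound. After 24 h at 30 °C and 99% humidity, viability was read by BacTiter-Glo luminescence.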
Cruzain noTriton: inhibitors of Trypanosoma cruzi cruzain without detergent | P25779 | purified cruzain, Z-FR-AMC fluorescence, no detergent | Potency, µM, for inactives: max response, negative = inhibition, hits mostly inhibitors | 200,000 compounds, 2.3% hits; active means well fitted curve in the direction sought with a large enough effect; inconclusive means small, poorly fitted or top-dose-only effect, or another doubt; inactive means no such curve, though single readings can be large; an effect the other way counts as inactive or inconclusive;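 further: plate controls were enzyme without inhibitor for no effect and buffer without enzyme for full effect; nearly all actives have a fitted effect of over 40% in size; top concentration of the series not given in the record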
Target sequence (P25779 123-467 limits assumed): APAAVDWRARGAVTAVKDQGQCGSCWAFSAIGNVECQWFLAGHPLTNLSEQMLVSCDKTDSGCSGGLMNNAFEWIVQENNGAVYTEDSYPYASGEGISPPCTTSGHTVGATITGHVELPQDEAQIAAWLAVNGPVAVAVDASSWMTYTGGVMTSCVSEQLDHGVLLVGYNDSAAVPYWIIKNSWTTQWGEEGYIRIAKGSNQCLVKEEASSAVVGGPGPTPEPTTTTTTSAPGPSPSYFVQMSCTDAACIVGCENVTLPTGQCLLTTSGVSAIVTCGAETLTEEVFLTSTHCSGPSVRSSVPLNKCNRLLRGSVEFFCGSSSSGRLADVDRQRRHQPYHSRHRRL
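Purified cruzain at 1.5 nM, pre-incubated 15 min with compound at room temperature in 100 mM sodium acetate pH 5.5, 5 mM DTT, 0.00005% Triton X-100. Reaction started with 2 uM Z-FR-AMC; AMC fluorescence increase over 60 s gives rate.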
NS1 inh: influenza NS1 inhibition; S. cerevisiae slowed by influenza A NS1, growth recovery by OD600; Potency, µM (series often up to 46.1 µM), without a hit: at the top dose activity, positive = more growth; 270,000 compounds, 0.4% hits; further: actives are rising curves; nearly all actives have a fitted effect of over 50% in size
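In this qHTS, NS1 from influenza A is expressed in budding yeast, where it slows growth. Cells are switched from glucose to 2% galactose medium (pH 6.0, -URA), treated with compound, and growth recovery is read at OD600.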
Lassa entry inh: Lassa virus entry inhibition; Lassa virus pseudotype entry inhibition, cell reporter; control for the full effect not named in the record; Potency, µM (highest dose often 37.9 µM), for the others: at the highest dose activity change, negative = inhibition, actives largely listed as inhibitors; 300,000 compounds, 1.2% hits; AID 540256; active means well fitted inhibition curve with a large enough effect; inconclusive means small, poorly fitted or top-dose-only effect, or effect the other way; inactive means flat fitted curve, though single readings scatter; tested in HEK293 cells; further: on the % scale 0 is the no-effect control and ±100 the full control effect; nearly all actives have a fitted effect of over 50% in size; luciferase read-out
SARS PLpro yeast: blocks SARS-CoV papain-like protease in a yeast assay | S. cerevisiae expressing SARS-CoV PLpro, growth rescue; control for the full effect not named in the record | Potency, µM (titrated, usually from 32.9 µM), without a hit: at the top dose activity, positive = growth rescue | 330,000 compounds, 0.19% hits | AID 485353; further: 0% is about no effect; nearly all actives have a fitted effect of over 55% in size; growth read by luminescence after 48 h
StopGo reporter: FMDV 2A StopGo reporter, luciferase signal | human cells with a luciferase reporter of 2A StopGo recoding; control for the full effect not named in the record | Potency, µM (titrated, usually from 57.9 µM), for the others: top-dose signal change, negative = less light | 410,000 compounds, 1.2% hits; active = well fitted falling curve with a large enough effect; inconclusive = small, poorly fitted or top-dose-only effect; inactive = no such curve, though single readings can be large or run the other way; tested in HEK293T cells; further: on the % scale 0 is the no-effect control and ±100 the full control effect; nearly all actives have a fitted effect of over 45% in size; luciferase light after 4 h
Cruzain Triton: blocks cruzain activity in presence of Triton detergent; purified cruzain, Z-FR-AMC fluorescence, 0.01% Triton; Potency, µM, for the others: max response, negative = inhibition, usual class: inhibitors; 200,000 compounds, 0.43% hits; AID 1478; active means well fitted curve in the direction sought with a large enough effect; inconclusive means small, poorly fitted or top-dose-only effect, or another doubt; inactive means no such curve, though single readings can be large; an effect the other way counts as inactive or inconclusive;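 further: plate controls were neutral wells for no effect and buffer without enzyme for full effect; nearly all actives have a fitted effect of over 40% in size; top concentration of the series not given in the record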
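Cruzain (1.5 nM) preincubated 15 min at RT with compound in 100 mM sodium acetate pH 5.5, 5 mM DTT, 0.01% Triton X-100. Reaction started with 2 uM Z-FR-AMC; AMC fluorescence (ex 360/em 450 nm) change over 60 s gave rate.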
MARV entry inh: inhibitors of Marburg virus binding or cell entry. Potency, µM (series often up to 37.8 µM), without a hit: top-dose activity change, negative = inhibition, actives largely listed as inhibitors. Marburg virus pseudotyped entry inhibition, cell reporter; control for the full effect not named in the record; about a third of the inactives were read at about 46 µM. AID 540276. 300,000 compounds, 1.8% hits; active = well fitted inhibition curve with a large enough effect; inconclusive = small, poorly fitted or top-dose-only effect, or effect the other way; inactive = flat fitted curve, though single readings scatter; tested in HEK293 cells; about a fifth of its hits are not listed in these tables; further: on the % scale 0 is the no-effect control and ±100 the full control effect; luciferase read-out
Active calls of the source: *; ? = inconclusive; . = no result given; [ ] = remark or other dose. Unless noted, the call rests on the fitted dose curve; in most records, active means well fitted rising curve with a large enough effect; inconclusive means small, poorly fitted or top-dose-only effect; inactive means no such curve, though single readings can be large or run the other way. Potency means the concentration at half of the fitted maximal effect.

SMILES	RE007 growth inh	Cruzain noTriton	NS1 inh	Lassa entry inh	SARS PLpro yeast	StopGo reporter	Cruzain Triton	MARV entry inh
COC(=O)c1scc(S(=O)(=O)C(C)(C)C)c1-n1cccc1	11%	.	-2%	.	1%	2%	.	.
CC(C)NC(=O)[C@H](CSCc1ccccc1)N1Cc2ccccc2C1=O	0%	1%	1%	0%	4%	-11%	-1.5%	3%
O=[N+]([O-])c1cc(Cl)ccc1NCCNc1ncc(C(F)(F)F)cc1Cl	-6%	-14%	-2%	7%	-1%	-19%	-7.4%	-2%
CN(C(=O)Nc1cccc(C(F)(F)F)c1)C1CCCCC1	-1%	.	1%	?	-1%	20%	.	-5%[46.1 µM]
CCOc1nc(C)ccc1-c1noc(-c2ccccc2OC)n1	?	19%	-8%	0%	3%	0%	-7.5%	-4%
O=C1C=CC(=Nc2ccc3c(c2)Cc2ccccc2-3)O1	28µM*	.	.	13%[46.1 µM]	.	19%	.	?
CCOC(=O)/C(=N/Nc1ccc(Cl)cc1)S(=O)(=O)c1ccc(Cl)cc1	5%	-19%	10%	-2%	5%	.	-0.5%	13%
Cc1cccc(-c2nnc3n2N=C(c2ccc(Br)cc2)CS3)c1	3%[3.69 µM]	-3%	-7%	-28%	1%	-4%	2.8%	?
O=C(CC(=O)N/N=C\c1ccccc1)NCCc1ccccc1	0%	.	4%	?	-3%	-14%	.	8%
Cc1ccc(S(=O)(=O)N(CC(=O)NC2CC2)c2ccc(C)c(Cl)c2)cc1	-16%	.	-52%	?	-5%	5%	.	-17%
N#Cc1ccc(Oc2ccc(NC(=O)C3CC=CCC3C(=O)O)cc2)cc1 (stereo not drawn)	-6%	.	2%	.	-1%	6%	.	.
CSc1ncccc1C(=O)NNc1cc(Cl)ccc1Cl	3%	.	-56%	?	-3%	15%	.	-1%[46.1 µM]
O=C(C1CCCN(Cc2ccccc2F)C1)N1CCCCC1 (stereo not drawn)	-13%	.	8%	-5%	0%	3%	.	-3%
O=C(COC(=O)c1ccccn1)NCCc1ccc(Cl)cc1	-8%	.	.	-1%[46.1 µM]	-3%	-5%	.	-9%[46.1 µM]
Cc1cc(/C=C2\SC(=S)N(Cc3ccco3)C2=O)c(C)n1-c1ccccc1	3%	10µM*	?	?	-6%	0%	-3.9%	?
CCSc1nnc(-c2cccnc2)n1Cc1ccco1	6%	-4%	12%	2%	-6%	8%	-0.3%	-20%
COc1cc(Cl)ccc1S(=O)(=O)n1nc(C)cc1C	-3%	-2%	1%	12%	-4%	-13%	0.4%	-23%
Cc1[nH]c2ccccc2c1C(=O)C(=O)NCCOc1ccccc1	21%	.	.	4%	2%	-17%	.	?
N#CCCN(Cc1cccs1)C(=O)c1ccc(Cl)cc1	-2%	.	2%	.	-1%	-13%	.	.
Nn1c(SCc2cccc3ccccc23)nnc1-c1ccco1	5%	0%	-110%	-5%	-6%	7%	2.1%	3%
O=C(CSc1nnc(-c2ccccc2F)o1)N1CCCC1	-18%	.	13%	?	1%	64%[activator]	.	10%[46.1 µM]
CCOc1ccccc1NC(=O)NC1CCCCCCC1	15%	.	2%	4%[46.1 µM]	-4%	16%	.	-2%[46.1 µM]
O=C(NN=C1CCCC1)c1ccccc1OCc1ccc(Cl)cc1	9%	.	10%	-28%[46.1 µM]	-1%	-16%	.	?
CSc1nc2[nH]ncc2c(=O)n1-c1ccccc1	12%	4%	2%	-3%	3%	-22%	-3.1%	-3%
O=C1c2ccccc2-c2onc3c(Br)cc(NC4CCCCC4)c1c23	.	-19%	.	-2%[46.1 µM]	.	-18%	0.5%	?
CCCCN(CCCC)S(=O)(=O)c1ccc(NS(=O)(=O)c2ccc(NC(C)=O)cc2)cc1	8%	?	22%	4%	12%	7%	-13%	-4%
O=C(OCC#Cc1c(COC(=O)c2ccccc2)nnn1Cc1ccccc1)c1ccccc1	0%	.	2%	.	3%	-2%	.	.
Nc1nc(SCC(=O)Nc2cc(Cl)c(Cl)cc2Cl)n[nH]1	2%	.	.	?	?	-24%	.	-21%
COc1cc(/C=N/NC(=O)CNC(=O)c2ccc3c(c2)OCCO3)ccc1O	19%	10%	1%	13%	0%	44%[activator]	3.5%	28%
Cc1ccc(S(=O)(=O)NC(=O)Nc2cc(C)ccc2F)cc1	16%	3%	?	?	6%	12%	4.5%	-2%
Cc1cccc(NC(=O)c2nc(S(C)(=O)=O)ncc2Cl)c1	.	-10%	.	?	.	25µM*	-2.8%	.
Cc1nn(C)c(C)c1S(=O)(=O)N1CCC(CO)(CC2CCCCO2)CC1 (stereo not drawn)	-3%	.	-1%	.	1%	-9%	.	1%[46.1 µM]
CS(=O)(=O)c1ccc2c(c1)sc1nc(=O)c(/C=C3/C=CC(=O)C(O)=C3)c(N)n12	-16%	.	7%	0%	0%	11%	.	?
Cc1cc(C)c(NC(=O)CSc2n[nH]c(-c3ccccc3Cl)n2)c(C)c1	.	9%	.	-9%[46.1 µM]	.	-8%	-0.7%	.
CCN(Cc1ccccc1)C(=O)c1cn(-c2cccc(OC)c2)c(=O)c2ccccc12	.	6%	.	-18%[46.1 µM]	.	19%	0.5%	.
Cc1ccc(/C=N/n2nnnc2N)o1	9%	-9%	8%	5%	11%	1%	-3.6%	-4%
COc1ccc(CN(CC(=O)NCc2ccc(F)cc2)C(=O)CCC(=O)Nc2nccs2)cc1	-16%	.	13%	?	1%	-18%	.	12%[46.1 µM]
CCOc1ccc(Nc2c(S(=O)(=O)c3ccc(Cl)cc3)cnc3ccc(OC)cc23)cc1	.	-19%	.	.	.	-19%	-3.9%	-1%[46.1 µM]
C/C(=N\NC(=O)CSc1nc(C)[nH]c1[N+](=O)[O-])c1ccc(F)cc1	3%	.	4%	-2%[46.1 µM]	1%	24%	.	-1%[46.1 µM]
O=C(Nc1ccccc1-c1nc2ccccc2s1)c1cccnc1Cl	-6%	-6%	1%	-11%	0%	-17%	4.1%	-26%
COc1ccccc1CCNC(=O)CCCn1c(=O)c2cccn2c2cccnc21	.	9%	.	3%[46.1 µM]	.	-23%	-2.0%	5%[46.1 µM]
O=C(COc1ccc([N+](=O)[O-])cc1)Nc1ccccc1N1CCCC1	-9%	.	-6%	.	-1%	?	.	.
O=C(COc1cccc2ccccc12)N/N=C/c1ccncc1	9%	.	.	24%[46.1 µM]	-8%	18%	.	?
CN1C(=O)N(c2ccccc2)C(Nc2nncs2)C1(C)C (stereo not drawn)	22%	6%	-9%	9%	5%	-5%	-0.7%	0%
COc1cc(C2NC(=O)c3ccccc3O2)ccc1OC(C)C (stereo not drawn)	28%	.	23%	15%	-5%	-28%	.	-1%
O=C(c1ccc(Br)cc1)c1cc(-c2ccccn2)c(N2CCOCC2)s1	-6%	?	-4%	-29%	6%	?	-4.5%	?
O=[N+]([O-])c1ccc(N/N=C/c2ccc(O)c(O)c2O)c(S(=O)(=O)N2CCOCC2)c1	-1%	.	14%	-5%	6%	?	.	-29%[46.1 µM]
Cc1ccc(C(=O)OC(C)C(=O)c2cc(C)c(C)cc2C)o1 (stereo not drawn)	-11%	.	-8%	4%[46.1 µM]	.	12%	.	-9%[46.1 µM]
Cc1nc(-c2ccccc2)cc(N2CCCC2)n1	-13%	-8%	-6%	5%	7%	8%	0.3%	-10%
CC(=O)Nc1ccc(OCc2cccc3ccccc23)cc1	2%	.	-5%	.	?	0%	.	.
CN(C)CCc1nc2ccccc2c(=O)n1-c1ccccc1	.	-6%	-2%	.	3%	.	7.1%	4%
COc1ccc(N2CCN(C3CC(=O)N(Cc4ccccc4)C3=O)CC2)cc1 (stereo not drawn)	-24%	.	.	-2%[46.1 µM]	-12%	-16%	.	6%[46.1 µM]
CNC(=O)c1nn(-c2ccc(Cl)cc2)ccc1=O	-6%	3%	10%	1%	0%	-11%	-6.3%	12%
COc1ccc(/C=N/Nc2nc(N3CCCC3)nc(N3CCCC3)n2)cc1	0%	1%	?	3%	-9%	-15%	-8.4%	5%
COc1cc2c(cc1OC)C(c1cc(Br)c(OC)c(OC)c1)CC(=O)N2 (stereo not drawn)	2%	.	-10%	.	-6%	30%	.	.
CCn1c(COc2ccccc2OC)nc2ccccc21	-3%	.	-20%	.	-10%	35%[activator]	.	.
CCN(CC)C(=O)C1CCCN(C(=O)c2cc(COc3cccc(OC)c3)on2)C1 (stereo not drawn)	-13%	.	0%	-14%	2%	1%	.	-16%
CCOC(=O)c1cnc(-n2nc(C)cc2C)nc1N(CC)CC	-1%	16%	-98%	-3%	-8%	-27%	?	-26%
COc1ccc(-n2cc(C(=O)c3ccc4ccccc4c3O)cn2)cc1	2%	.	-1%	11%	0%	1%	.	-9%[46.1 µM]
Cn1c(=O)c2c(ncn2CC(COCc2ccccc2Cl)OCc2ccccc2Cl)n(C)c1=O (stereo not drawn)	5%	?	-53%	?	-5%	-29%	-0.4%	?

Following part
SMILES	RE007 growth inh	Cruzain noTriton	NS1 inh	Lassa entry inh	SARS PLpro yeast	StopGo reporter	Cruzain Triton	MARV entry inh
COc1ccc(NC(=O)c2ccco2)c(NC(=O)Cc2cccs2)c1	-6%	15%	2%	-2%	2%	-10%	1.6%	10%
CCOc1ccc(NC(=O)CN(C)C(=O)c2cn(-c3ccc(C)cc3)nc2-c2cccc(OC)c2)cc1OCC	1%	.	.	-29%	.	-5%	.	11µM*
COc1ccccc1C(=O)N/C(=C\c1cn(C)c2ccccc12)C(=O)N1CCCC1	-5%	.	-3%	.	0%	26%	.	.
O=C1CCc2cc(S(=O)(=O)Nc3ccccc3)cc3c2N1CC3	-7%	.	.	-23%[46.1 µM]	4%	72%[activator]	.	11%
CC(C)(C)OC(=O)N1CCC[C@H]1C(=O)Nc1ccc(S(=O)(=O)C(F)F)cc1	-14%	.	-2%	.	0%	-12%	.	.

Source: PubChem BioAssay (National Center for Advancing Translational Sciences (NCATS))
